# HNF4A DNA FP: change in binding of human HNF4 alpha to DNA; P41235; HNF4a-FITC DNA binding, fluorescence polarization, 1 h; activity change, % at 10 µM; 360,000 compounds, 0.3% hits; AID 1224865; in the data active = activity change above about 30%, passing the limit was not always enough;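 note: controls were the assay level and a saturating level of protein; the project sought stronger binding though the title names inhibitors; some compounds called inactive have numbers as strong as hits; positive values seem to mean higher polarization but the record does not say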
# MLL AF4-AF9 inh: blocks AF4 peptide binding to human AF9. AlphaScreen, biotin-AF4 peptide binding to FLAG-AF9. inhibition, % at 10 µM. 350,000 compounds, 0.47% hits. AID 651704;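 active = every replicate reaching a set inhibition limit, whatever the replicate mean, cut at about 25% in these data; inconclusive = mean inhibition reaches that limit but some replicates miss it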;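 note: 0% = plate neutral control median and 100% = total signal loss; the record names both 10 and 1 µM as test concentration; the first replicate is given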
# Target sequence (P42568 whole entry, looked up): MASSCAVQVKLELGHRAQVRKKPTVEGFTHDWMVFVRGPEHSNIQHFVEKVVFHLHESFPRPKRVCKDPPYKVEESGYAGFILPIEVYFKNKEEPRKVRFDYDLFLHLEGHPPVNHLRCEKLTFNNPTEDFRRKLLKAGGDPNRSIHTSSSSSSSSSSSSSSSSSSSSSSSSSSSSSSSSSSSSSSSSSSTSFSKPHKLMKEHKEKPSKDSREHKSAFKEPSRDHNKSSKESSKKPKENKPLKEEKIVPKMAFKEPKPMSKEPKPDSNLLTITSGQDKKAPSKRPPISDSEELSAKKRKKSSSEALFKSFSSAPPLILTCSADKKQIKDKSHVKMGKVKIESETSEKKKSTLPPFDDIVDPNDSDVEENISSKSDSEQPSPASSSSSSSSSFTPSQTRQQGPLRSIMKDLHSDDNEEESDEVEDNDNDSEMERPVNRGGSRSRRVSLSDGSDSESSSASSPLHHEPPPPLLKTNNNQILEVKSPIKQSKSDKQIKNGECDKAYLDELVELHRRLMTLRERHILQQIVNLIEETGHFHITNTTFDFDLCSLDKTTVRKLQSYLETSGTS
# Vif TR-FRET: inhibitors of Vif binding to APOBEC3G peptide, primary screen, biochemical, TR-FRET, GST-Vif 1-94, biotin-A3G peptide, dose response retest (AID 1117319) | TR-FRET GST-Vif / biotin-A3G peptide binding; higher % means a stronger effect; test concentration not given here; strong numbers were not always called active | one-dose inhibition, %; IC50 in µM for titrated hits | 260,000 compounds, 0.57% hits;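 active = above the screen mean plus three standard deviations and confirmed in dose response; inconclusive = results disagree or hit not tested in dose response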;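 note: Vif residues 1-94 fused to GST binding biotinylated APOBEC3G peptide 110-148; 0% = full assay without inhibitor and 100% = GST in place of GST-Vif; retest series ran down from 100 µM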
# Ecoli growth: E. coli growth inhibition | Escherichia coli growth, OD600, 23 h; stronger effect = lower value | OD600 absorbance (test concentration not listed) | 330,000 compounds, 0.21% hits;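 active = OD600 absorbance below the run mean of sample wells minus 3.6 SD, in any replicate, cut at about 0.56 in these data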;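 note: stock transfer was 300 nL into about 60 µL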
# UCH37 inh: inhibitors of human deubiquitinating enzyme UCH37 | 330,000 compounds, 0.33% hits | Q9Y5K5 | purified proteasome/UCH37, Ub-AMC cleavage fluorescence | inhibition, % (test concentration not listed);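 active = mean of two replicates above 20%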;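 note: 0% = compound-free wells with enzyme and 100% = wells lacking proteasome; stock transfer was 100 nL into about 20 µL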
# Target sequence (Q9Y5K5 whole entry, looked up): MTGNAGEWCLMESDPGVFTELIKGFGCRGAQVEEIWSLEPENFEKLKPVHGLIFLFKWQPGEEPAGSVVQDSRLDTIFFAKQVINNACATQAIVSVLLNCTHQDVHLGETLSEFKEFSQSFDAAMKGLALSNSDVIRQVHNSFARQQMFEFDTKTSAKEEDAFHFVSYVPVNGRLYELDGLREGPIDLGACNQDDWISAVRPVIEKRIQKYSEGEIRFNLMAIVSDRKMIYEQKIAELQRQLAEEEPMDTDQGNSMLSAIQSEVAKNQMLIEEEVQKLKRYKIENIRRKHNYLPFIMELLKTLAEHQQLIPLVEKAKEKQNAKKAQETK
#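 Assay system: Proteasome-bound UCH37. Buffer or medium: pH 7.4 Tris-HCl (50 mM) with ovalbumin, ATP-MgCl2, DTT. Incubation: 30 min preincubation with enzyme, 25 min cleavage at room temperature. Measured by: fluorescence, ex 355 nm, em 460 nm. Read-out basis: percent inhibition. Control set: wells without proteasome as full block, compound-free enzyme plus substrate as uninhibited.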
# FGF22 binding: binders of recombinant human FGF22 by thermal shift; Q9HCT0; calls only at 9.99 µM; 340,000 compounds, 1.5% hits; SYPRO orange fluorescence; percent of sucrose octasulfate shift, DMSO zero;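 active = melting point raised past a set limit in the mean and every replicate; inconclusive = no clear call; three in four hits are not shown here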
# Target sequence (Q9HCT0 whole entry, looked up): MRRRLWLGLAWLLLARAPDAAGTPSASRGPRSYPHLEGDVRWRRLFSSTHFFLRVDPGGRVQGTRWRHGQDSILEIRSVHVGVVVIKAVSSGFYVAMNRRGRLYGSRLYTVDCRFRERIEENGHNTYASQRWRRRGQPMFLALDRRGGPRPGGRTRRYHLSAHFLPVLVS
# RanGTP-Imp inh: disruptors of Ran-importin-beta complex formation – biochemical, FRET, CFP-Ran, YFP-importin-beta, homogeneous, primary screen | AID 2216 | 300,000 compounds, 1.1% hits | cell-free CFP-Ran/YFP-importin-beta FRET ratio | inhibition, % (concentration not given with the values);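 active = most replicates above 15%; inconclusive = exactly half above 15%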;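 note: 0% = DMSO wells and 100% = Ran loaded with GDP instead of GTP; wells of about 40 µL received 100 nL stock; the first replicate is given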
# Active calls of the source: *; i = inactive; ? = inconclusive; / = no result given. The list is partial (hit frequency here may not be typical).
SMILES,HNF4A DNA FP,MLL AF4-AF9 inh,Vif TR-FRET,Ecoli growth,UCH37 inh,FGF22 binding,RanGTP-Imp inh
Cc1cc(Nc2ccccc2)n(CCO)n1,-0.3,/,2%,0.69,0.3,/,-4.4
O=C1CC(N2CCN(c3nc4ccccc4s3)CC2)C(=O)N1c1cccc(F)c1 (centres undefined),1.6,/,-3%,0.64,2.3,/,5.8
Cc1cc(C)c(-c2cc(NC(=O)COC(=O)c3ccc(C#N)cc3)n(-c3ccccc3)n2)cc1C,8.8,0.1,/,0.71,1.1,i,0.0
O=C(CSc1oc(-c2cccs2)nc1S(=O)(=O)c1ccc(F)cc1)NCC1CCCO1 (centres undefined),5.0,6.6,?,0.68,-0.3,i,0.0
Cc1ccc(OC(C)C(=O)Nc2ccc3c(c2)n(C)c(=O)n3C)cc1C (centres undefined),-5.4,-1.6,7%,0.68,2.2,i,-1.1
COC(=O)CSC1=C(C#N)C(c2sccc2C)CC(=O)N1 (centres undefined),2.0,/,3%,0.81,1.3,/,?
Cc1ccccc1CN(c1ccc(C(=O)NCc2cccnc2)cc1)S(C)(=O)=O,7.8,-1.7,-8%,0.66,-0.6,i,-2.3
CC(NCc1ccc(S(N)(=O)=O)cc1)C(=O)NCc1ccccc1 (centres undefined),2.0,-1.4,-3%,0.71,4.1,i,10
COc1ccc(/C=C/C(=O)c2ccc(OC)cc2O)cc1,0.6,-26,10%,/,2.6,i,0.8
COc1ccc(NCC(=O)Nc2ccc(C#N)cc2)cc1Cl,4.8,/,?,0.59,1.9,/,-1.6
CC(=O)[C@@]1(O)[C@H](C)CC2C3CC=C4CC(OP(=O)(O)O)CC[C@]4(C)C3CC[C@@]21C (some centres undefined),-0.3,-0.2,-4%,0.65,1.6,i,1.2
CCCCCCCC(=O)NNC(=O)CC(=O)Nc1ccccc1C(=O)O,1.6,/,/,0.7,-0.4,/,?
CCC(C)c1ccc(C(C)NC(=S)NCc2ccc(F)cc2)cc1 (centres undefined),-2.4,-0.7,/,0.62,2.0,i,-1.2
CCNc1ccccc(C(=O)/C=C/c2ccc3c(c2)OCO3)c1=O,3.4,/,?,0.7,5.8,/,-6.8
CCN(CC)CCCNS(=O)(=O)c1ccc(OC)cc1,-0.2,/,4%,0.67,3.9,/,1.3
CC(C)(C)C(=O)NC(=S)NNC(=O)c1sc2ccccc2c1Cl,-0.4,/,?,0.64,4.2,/,0.8
O=C(Nc1ccccc1Cl)c1cc2ccccc2o/c1=N\O,0.4,-0.8,/,/,/,i,3.4
Nc1ccnn1Cc1cccnc1,0.8,/,6%,0.76,1.6,/,-1.4
N#C/C(=N/Nc1ccc(S(=O)(=O)N2CCOCC2)cc1)C(N)=O,2.4,-0.6,2%,/,/,i,-0.1
COc1ccc(C(=O)NCC2CCCCC2)cc1S(=O)(=O)N1CCOCC1,1.9,0.4,-2%,0.7,-0.7,i,/
Cc1oc2ccccc2c1CC(=O)NCCCN(C)C,2.1,-0.9,2%,0.68,2.2,i,1.9
O=C(CCc1ccccc1)NNC(=O)Nc1ccc(Cl)cc1,4.2,-3.0,/,0.64,3.6,i,2.5
O=C(CCN1C(=O)C2CC=C(Cl)CC2C1=O)Nc1ccccc1O (centres undefined),0.0,/,?,0.69,-0.7,/,3.3
Cc1ccc(S(=O)(=O)Nc2cccc(NC(=O)CN3CCCCC3)c2)cc1,5.1,/,-2%,0.66,2.5,/,-0.2
CCOCCCNC(=O)c1ccc(N2CCCC2)c(NS(=O)(=O)c2ccc(C)cc2)c1,2.8,-4.4,0%,0.71,0.3,i,4.7

# 4 compounds drawn at random from the list so far:
SMILES,HNF4A DNA FP,MLL AF4-AF9 inh,Vif TR-FRET,Ecoli growth,UCH37 inh,FGF22 binding,RanGTP-Imp inh
Cc1ccccc1CN(c1ccc(C(=O)NCc2cccnc2)cc1)S(C)(=O)=O,7.8,-1.7,-8%,0.66,-0.6,i,-2.3
CCC(C)c1ccc(C(C)NC(=S)NCc2ccc(F)cc2)cc1 (centres undefined),-2.4,-0.7,/,0.62,2.0,i,-1.2
CCNc1ccccc(C(=O)/C=C/c2ccc3c(c2)OCO3)c1=O,3.4,/,?,0.7,5.8,/,-6.8
Cc1cc(Nc2ccccc2)n(CCO)n1,-0.3,/,2%,0.69,0.3,/,-4.4

# (next part)
SMILES,HNF4A DNA FP,MLL AF4-AF9 inh,Vif TR-FRET,Ecoli growth,UCH37 inh,FGF22 binding,RanGTP-Imp inh
C=CCOc1ccc(/C=C/C(=O)OCC(=O)Nc2c(C)n(C)n(-c3ccccc3)c2=O)cc1,-1.0,0.2,6%,0.66,1.0,i,-3.4
Cc1cc(C)c2[nH]c(C)c(CN3CCCCCC3)c(=O)c2c1,5.4,-23,-20%,0.65,-1.8,i,?
COC(=O)c1ccc(CSc2nc3ccc(C)cc3[nH]2)o1,3.6,/,-1%,0.72,6.8,/,-1.8
O=C(Cn1cnc2ccccc2c1=O)Nc1ccc2c(c1)OCO2,0.6,2.2,/,0.68,0.8,i,-2.2
CC(=O)N1CCc2cc(S(=O)(=O)NC3CCCCC3)ccc21,0.5,-6.7,/,0.72,0.3,i,2.1
O=C(NCC(c1cccnc1)N1CCN(c2ccccc2F)CC1)C1CCCCC1 (centres undefined),-1.3,/,3%,0.71,2.8,/,1.8
CCCCn1nc(C(=O)N(C)CC(=O)Nc2cccc(F)c2)c2ccccc2c1=O,0.1,7.9,-4%,0.71,-2.2,i,-3.8
O=C(Nc1cc(C(F)(F)F)ccc1-n1cncn1)c1ccc(Cl)cc1,3.9,/,-5%,0.73,0.7,/,-2.3
O=C(Nc1cccc(Cl)c1)c1cc2c(=O)n3ccccc3nc2s1,1.6,-1.3,-10%,0.67,-66,i,91*
COc1ccc(/C=N/Nc2ccccn2)c(OC)c1OC,-0.1,4.6,-6%,/,/,i,0.6
CCCc1ccc(OCc2ccc(C(=O)OC)o2)c(OC)c1,2.1,4.7,3%,0.66,-1.2,i,2.5
O=C(N/N=C/c1ccc(N2CCOCC2)cc1)C1COc2ccccc2O1 (centres undefined),3.9,0.9,/,/,/,i,-3.2
O=C(COC(=O)CCOc1ccccc1)Nc1ccc(Cl)cn1,0.5,/,2%,0.72,-0.1,/,-1.0
CSCCCNC(=S)Nc1cccc(S(=O)(=O)NC2=NCCC2)c1,1.8,-2.5,-2%,0.65,0.1,/,-0.1
COc1cc2[nH]c(=S)nc(NCC3CCCO3)c2cc1OC (centres undefined),-0.6,/,5%,0.72,4.4,/,?
CCc1ccccc1Nc1nc(N)nc(COC(=O)CCC(=O)c2ccc(F)cc2)n1,5.6,/,/,0.68,-0.5,/,/
O=S(=O)(NCC1OCCc2ccccc21)c1ccc(S(=O)(=O)N2CCOCC2)cc1 (centres undefined),-0.1,/,2%,0.71,3.9,/,-2.2
Cc1ccc(NS(=O)(=O)c2cc3[nH]c(=O)c(=O)[nH]c3cc2C)c(C)c1,6.0,-6.9,/,0.73,3.0,i,1.4
O=C(/C=C/c1ccc(F)cc1)c1cc(Br)ccc1O,1.4,3.7,-1%,0.68,3.3,i,-0.1
CCOC(=O)Cn1c(C)c(Br)c(=O)c2cccc(C)c21,-1.5,/,-1%,0.73,1.7,/,-5.9
CC1CCCC(C)N1C(=O)COC(=O)Cc1ccc(F)cc1 (centres undefined),-2.2,1.6,1%,0.69,0.8,i,-2.8
CCOC(=O)c1cccc(NC(=O)/C=C/c2ccc([N+](=O)[O-])cc2)c1,1.6,-9.2,-4%,0.72,-1.2,i,9.7
CN(C)CCCNCCCNC(=O)/C(=N\O)c1ccccc1,1.8,0.1,6%,/,/,i,2.2
COC(=O)C(CCSC)NC(=O)CNS(=O)(=O)c1ccc(Cl)cc1 (centres undefined),-2.1,/,4%,0.69,1.4,/,-1.7
C=CCn1nnc2sc3c(c2c1=O)CCC(C)C3 (centres undefined),3.3,/,11%,0.74,-2.0,/,-5.0

# Next part:
SMILES,HNF4A DNA FP,MLL AF4-AF9 inh,Vif TR-FRET,Ecoli growth,UCH37 inh,FGF22 binding,RanGTP-Imp inh
COc1ccc(-c2noc3c2-c2nc(-c4ccccc4)sc2CC3)cc1,2.7,-11,/,0.74,-3.4,i,-0.6
CCCCN1CC(COCc2ccccc2)Oc2cccc(OCCN3C(=O)[C@@H]4[C@H](C3=O)C3C=C[C@H]4C3)c2S1(=O)=O (some centres undefined),0.4,0.5,1%,/,/,i,/
CCOC(=O)c1csc(Nc2nc3ccc(F)cc3s2)n1,4.1,/,-24%,0.73,-1.7,/,-1.6
O=C(O)COc1cccc2nsnc12,0.8,/,14%,0.77,-4.4,/,1.2
CN(C(=O)n1cnc2ccccc21)c1ccccc1,-4.8,/,-5%,0.71,3.0,/,-1.8
Cc1c(Cl)cccc1NC(=S)NC1CCCC1,5.9,-4.2,-1%,0.64,1.4,i,?
O=C(c1ccco1)N1CCc2ccccc21,-1.1,-2.8,11%,0.65,3.4,i,-2.2
CCn1cc(CCC(=O)NCCN2CCOCC2)c2ccccc21,0.4,1.0,7%,0.68,0.1,i,1.1
O=C(CCNC(=O)c1ccco1)Nc1ccccc1N1CCOCC1,1.7,-0.2,-8%,0.64,3.2,i,5.4
O=C(COC(=O)c1ccc([N+](=O)[O-])o1)Nc1ccc(Br)cc1F,5.0,0.8,/,0.6,8.2,i,/
CSCCC(NC(=O)c1ccc([N+](=O)[O-])cc1Cl)C(=O)OCC(=O)NC1CCCC(C)C1C (centres undefined),2.4,5.4,2%,0.69,3.4,i,2.4
Cc1ccc(S(=O)(=O)c2nc(S(=O)(=O)CCO)sc2N2CCOCC2)cc1,-4.4,-0.2,/,0.68,1.3,i,1.8
COc1ccc(CC(=O)Nc2c3c(nn2-c2cccc(C)c2C)CS(=O)(=O)C3)cc1,-3.9,/,5%,0.66,2.4,/,0.3
CC1(C)CC(=O)C(CC(=O)NC2CCCc3ccccc32)C(=O)C1 (centres undefined),1.7,-0.4,17%,0.67,3.8,i,4.3
CN(c1ccc(C(=O)COC(=O)C2CC2)cc1)S(C)(=O)=O,-1.2,-1.1,0%,0.72,4.1,i,/
CCCNC(=O)Cn1c(=O)cnc2ccccc21,-0.2,/,4%,0.73,-21,/,3.1
COc1ccc(-c2nnn(Cc3nc(N)nc(N4CCCCC4)n3)n2)cc1,-1.3,/,2%,0.69,1.8,/,-0.9
COc1cccc(C(=O)Nc2ccccc2C(=O)N2CCCC2)c1,3.0,/,-2%,0.72,2.9,/,-0.7
Cc1cc2nc(NC(=O)C3(C)CCN(C)C3)[nH]c2cc1C (centres undefined),1.6,3.8,/,/,/,i,/
CC(C)c1ccc(/C=C(\NC(=O)c2ccccc2)C(=O)NCCN2CCOCC2)cc1,-6.4,-2.9,-12%,/,/,i,0.4
CCC(C)c1ccc(NC(=O)c2[nH]c(C)c(C(C)=O)c2C)cc1 (centres undefined),-8.6,0.1,/,0.71,2.6,i,-2.4
COc1ccc2[nH]c3c(c2c1)CCN1C(=O)C(CC(=O)NC(C)(C)C)C[C@H](C(=O)N2CCCCC2)[C@@]31CCc1ccccc1 (some centres undefined),1.0,9.7,/,0.7,6.2,i,/
Cc1ccc(/C=c2\sc3nc(-c4ccco4)nn3c2=O)o1,-34,/,?,/,/,/,12
Clc1c(-c2ccccc2)nnn1-c1ccccc1,0.7,-3.5,-12%,0.65,1.5,i,2.1
CC(=O)/C(N=Nc1ccc(SC(F)F)cc1)=C(\C)O,-2.1,3.7,3%,0.7,8.4,i,0.0
S=C(N/N=C/c1ccc(Cl)c(Cl)c1)Nc1ccccc1Cl,0.5,-0.7,2%,/,/,/,-5.2
CC1=C(C#N)CCC(=O)N1Cc1c(F)cccc1Cl,-4.0,-1.2,-3%,0.66,1.0,i,?
O=C1Nc2ccccc2C(=O)N2[C@H](c3cccc(Br)c3)[C@@H]3C(=O)N(Cc4ccccc4)C(=O)[C@@H]3[C@H]12,-0.1,3.3,/,/,1.9,i,2.1

# Source: PubChem BioAssay
